KB-3-1 tox: KB-3-1 parental cell cytotoxicity | KB-3-1 viability, CellTiter-Glo ATP luminescence, 72 h | Potency, µM (series often up to 46.1 µM), for the others: at the highest dose activity change, negative = cytotoxic, usual class: cytotoxic | 400,000 tested, 1.4% active | AID 1347075; also: potency is read from the fitted curve at half-maximal effect; % is scaled to controls: 0 for no effect and ±100 for the full control effect; nearly all actives have a fitted effect of over 60% in size
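72 h, 37 °C compound treatment of KB-3-1 parental cells; CellTiter-Glo added, 10 min, luminescence read. Data corrected against DMSO-only plates and normalized before curve fitting.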
IL-1B inflam inh: blocks inflammasome-driven IL-1 beta release; 360,000 tested, 4.7% active; THP-1 LPS/ATP IL-1B secretion, AlphaLISA, 16 h; active compounds read low; activity change, % at 57.5 µM; in the data active = activity change below about -50%; inconclusive = mostly about -30% to -49%; also: % is scaled to controls: 0 for no effect and ±100 for the full control effect
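Secreted IL-1B measured by AlphaLISA bead assay after 16 h compound exposure of THP-1 cells; compounds (final up to 57.5 uM) added 1 h before LPS (250 ng/mL) and ATP (1.25 mM) stimulation; lower signal means less secretion.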
ATXN viability: cell viability loss in ATXN counter-screen. 400,000 tested, 0.49% active. S2 cells (HEK-293 line with an ATXN2-luciferase reporter) viability, CellTiter-Fluor protease fluorescence, 24 h. Potency, µM (top dose mostly 56.7 µM), hits mostly cytotoxic; also: potency is read from the fitted curve at half-maximal effect; nearly all actives have a fitted effect of over 40% in size
MCF10A rerep: induces DNA re-replication in MCF 10a normal breast cells; MCF 10A DNA re-replication, Hoechst nuclear intensity, 48 h; Potency, µM (doses to about 46.1 µM), without a hit: at the top dose activity, positive = re-replication, most hits filed as activators; 350,000 tested, 2.9% active; AID 624296; also: potency is read from the fitted curve at half-maximal effect; % of control where 0% means no effect; nearly all actives have a fitted effect of over 50% in size
HepG2 viability: HepG2 cytotoxicity, counter-screen for TGF-b inhibitors; HepG2 CAGA-GFP viability, ATP luminescence, 18 h; Potency, µM (doses to about 46.1 µM), inactives show top-dose activity change, negative = cytotoxicity, most hits filed as cytotoxic; 410,000 tested, 0.76% active; AID 588856; also: potency is read from the fitted curve at half-maximal effect; some results filed as inactive show a strong effect at the top dose
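CellTiter-Glo luminescence gave cytotoxicity after 18 hours at 37 degrees C. The cells were HepG2 CAGA-GFP in 1% FBS DMEM, stimulated with 500 pg/mL TGF-beta after compound addition. %Activity was normalised to no-cell wells (complete cell-killing) and DMSO (no toxicity), and curves were fitted and classified.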
SW480 rereplic: inducers of DNA re-replication in SW480 colon cancer cells; SW480 DNA re-replication, Hoechst DNA content imaging, 48 h; Potency, µM (highest dose often 46.1 µM), inactives show at the top dose re-replication activation, usual class: activators; 340,000 tested, 1.8% active; AID 624297; also: potency is read from the fitted curve at half-maximal effect; % of control where 0% means no effect; nearly all actives have a fitted effect of over 55% in size
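250 cells/well; 23 nL cpd via pin tool; 48 hr, 37 C, 5% CO2; Hoechst 40 min; imager read of total nuclear intensity, ex 405/em 500-530 nm.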
The depositor's hits bear a star; i = inactive; ? = inconclusive; / = no result given; & = joins results of further samples; [ ] = dose if it differs, or a comment. Unless noted, calls follow the shape of the dose curve; as a rule, active = well fitted curve in the direction sought with a large enough effect; inconclusive = small, poorly fitted or top-dose-only effect, or another doubt; inactive = no such curve, though single readings can be large; an effect the other way counts as inactive or inconclusive. The list is partial; rates above refer to the full screens.

no.	Compound	KB-3-1 tox	IL-1B inflam inh	ATXN viability	MCF10A rerep	HepG2 viability	SW480 rereplic
1	COC(=O)CC#N	0%	12	i	1%	3%	-15%
2	Cc1c(C(N)=O)cc([N+](=O)[O-])cc1[N+](=O)[O-]	4%	3	i	0%&1%	-12%	17%&-5%
3	OC(CCCN1CCCCC1)(c1ccccc1)c1ccccc1	0%	-4	?	12%&8%	-5%	5%&2%
4	Cc1ccc(C(C)C)c(O)c1	0%	1	i	4%&-10%	2%	-8%&-6%
5	O=P(O)(OCc1ccccc1)OCc1ccccc1	0%	12	i	-27%	5%	-16%
6	C[C@]1(Cn2ccnn2)[C@H](C(=O)O)N2C(=O)C[C@H]2S1(=O)=O	/	/	i	/	/	/
7	Cc1cc(C)c(CNC(=O)c2cc(C3CC3)nc3c2cnn3C(C)C)c(=O)[nH]1	-14%	-12	i	-5%	2%	-5%
8	O=c1[nH]cnc2c1ccn2C1OC(CO)C(O)C1O (configuration not stated)	15µM*	-13	?	2.1µM*	-44%	-1%
9	CCN(CC)CCCC(C)Nc1c2ccc(Cl)cc2nc2ccc(OC)cc12 (configuration not stated)	/	/	?	/	/	/
10	CNc1ccc([N+](=O)[O-])cc1	0%	-7	i	-12%	-1%	-16%
11	C[C@@H](C1=C(CCN(C)C)Cc2ccccc21)c1ccccn1	/	/	i	/	/	/
12	CC(=O)c1ccc(Cl)c(Cl)c1Cl	0%	26	i	-24%	-2%	?
13	C[C@]12CCC(=O)C=C1CC[C@@H]1[C@@H]2C(=O)C[C@@]2(C)[C@H]1CC[C@]2(O)C(=O)CO	0%	-10	i	?	-3%	-9%&-55%
14	OCCN1CCN(CC/C=C2\c3ccccc3Sc3ccc(C(F)(F)F)cc32)CC1	/	/	?	/	/	/
15	CC(=O)Nc1cccc(O)c1	0%	13	i	?	4%	0%&0%

Of the compounds above, 2 contain sulfur:
no.	Compound	KB-3-1 tox	IL-1B inflam inh	ATXN viability	MCF10A rerep	HepG2 viability	SW480 rereplic
6	C[C@]1(Cn2ccnn2)[C@H](C(=O)O)N2C(=O)C[C@H]2S1(=O)=O	/	/	i	/	/	/
14	OCCN1CCN(CC/C=C2\c3ccccc3Sc3ccc(C(F)(F)F)cc32)CC1	/	/	?	/	/	/

Following part:
no.	Compound	KB-3-1 tox	IL-1B inflam inh	ATXN viability	MCF10A rerep	HepG2 viability	SW480 rereplic
16	CCC(C)c1ccccc1O (configuration not stated)	0%	-10	i	3%	9%	-2%
17	CN1CCC(=C2c3ccccc3C=Cc3ccccc32)CC1	0%	?	i	?	0%	?
18	CC(C(=O)N1CCc2ccccc2C1)N1C(=O)c2ccccc2C1=O (configuration not stated)	2%	4	i	0%	1%	-13%
19	O=CC(O)C1OC(=O)C(O)C1O (configuration not stated)	0%	4	i	7%	-4%	3%
20	CS(=O)(=O)CCNCc1ccc(-c2ccc3ncnc(Nc4ccc(OCc5cccc(F)c5)c(Cl)c4)c3c2)o1	/	/	?	11%	/	8%
21	CCCC(CCC)C(=O)O	0%&0%	32&15	i	-5%&1%&3%	3%&-1%	0%&2%&-5%
22	O=C(CCCN1CCC(O)(c2ccc(Br)cc2)CC1)c1ccc(F)cc1	0%	?	i	12%	-39%	27%
23	O=C(/C=C/c1ccc(O)c(O)c1)O[C@@H]1C[C@](O)(C(=O)O)C[C@@H](O)[C@H]1O	-3%&0%	8&4	i	1%&-2%	-3%&-6%	-89%&-30%[inhibitor]
24	NS(=O)(=O)c1cc2c(cc1Cl)NC(C(Cl)Cl)NS2(=O)=O (configuration not stated)	0%	21	i	1%&4%	-3%	-3%&-14%
25	O=C1CCC(C(=O)O)N1 (configuration not stated)	0%	-8	i	41%	-6%	-3%
26	CC(O)(P(=O)(O)O)P(=O)(O)O	0%	-6	i	-4%&-4%	0%	6%&1%
27	CCOC(=O)[C@H](CCc1ccccc1)N[C@@H](C)C(=O)N1[C@H](C(=O)O)C[C@@H]2CCC[C@@H]21	0%	18	i	-23%	5%	-6%
28	Nc1nc(N)nc(-c2ccc(Cl)cc2)n1	19%	-8	i	0%	1%	0%
29	Cc1cc(C)nc(NS(=O)(=O)c2ccc(N)cc2)n1	0%	21	i	0%&7%&9%	3%	-2%&2%&9%
30	CN1CCN(CC/C=C2/c3ccccc3Sc3ccc(S(=O)(=O)N(C)C)cc32)CC1	-1%	?	/	?	-95%	?

Some of these compounds in order of their number in IL-1B inflam inh, low to high:
entry	Compound	IL-1B inflam inh	SW480 rereplic
7	Cc1cc(C)c(CNC(=O)c2cc(C3CC3)nc3c2cnn3C(C)C)c(=O)[nH]1	-12	-5%
26	CC(O)(P(=O)(O)O)P(=O)(O)O	-6	6%&1%
4	Cc1ccc(C(C)C)c(O)c1	1	-8%&-6%
2	Cc1c(C(N)=O)cc([N+](=O)[O-])cc1[N+](=O)[O-]	3	17%&-5%
18	CC(C(=O)N1CCc2ccccc2C1)N1C(=O)c2ccccc2C1=O (configuration not stated)	4	-13%
1	COC(=O)CC#N	12	-15%
29	Cc1cc(C)nc(NS(=O)(=O)c2ccc(N)cc2)n1	21	-2%&2%&9%

Some of these compounds in order of SMILES length, low to high:
no.	Compound	KB-3-1 tox	IL-1B inflam inh	ATXN viability	MCF10A rerep	HepG2 viability	SW480 rereplic
19	O=CC(O)C1OC(=O)C(O)C1O (configuration not stated)	0%	4	i	7%	-4%	3%
5	O=P(O)(OCc1ccccc1)OCc1ccccc1	0%	12	i	-27%	5%	-16%
2	Cc1c(C(N)=O)cc([N+](=O)[O-])cc1[N+](=O)[O-]	4%	3	i	0%&1%	-12%	17%&-5%

Next part:
no.	Compound	KB-3-1 tox	IL-1B inflam inh	ATXN viability	MCF10A rerep	HepG2 viability	SW480 rereplic
31	CCCCC[C@H](O)C=C[C@H]1[C@H](O)CC(=O)[C@H]1CC=CCCCC(=O)O	/	/	i	/	/	/
32	CCN(CC)CCCC(C)Nc1ccnc2cc(Cl)ccc12 (configuration not stated)	10µM*	/	?	/	-32%	/
33	CC(NC(=O)Cc1ccccc1)c1ccccc1 (configuration not stated)	0%	5	i	-4%	-12%	-4%
34	O=S(=O)(Nc1ccccc1-c1ccccc1)c1ccccc1	-3%	18	i	-1%	-3%	-5%
35	Cc1ncc([N+](=O)[O-])n1CC(C)O (configuration not stated)	0%	1	i	?	-4%	?
36	COC(=O)[C@H]1[C@H]2C[C@@H]3c4[nH]c5cc(OC)ccc5c4CCN3C[C@H]2C[C@@H](OC(=O)/C=C/c2ccc(O)c(OC)c2)[C@@H]1OC	/	/	?	/	/	/
37	O=c1[nH]c(=O)n([C@@H]2C[C@H](O)[C@H](CO)O2)cc1C(F)(F)F	/	/	?	/	/	/
38	CNC(=O)N(c1ccccc1)c1ccccc1	12%	21	i	-5%	2%	0%
39	CCCCOCCO	4%	-5	i	-8%	8%	5%
40	O=C(CCCN1CCC(O)(c2cccc(C(F)(F)F)c2)CC1)c1ccc(F)cc1	?	-54*	i	11%&24%	-36%	-23%&7%
41	CCN(CC)CCCN(c1ccccc1)C1Cc2ccccc2C1	/	/	?	29%	/	?
42	Cc1cccc(Nc2ncnc3ccccc23)c1	4%	1	?	?	-3%	0%
43	CN1CCC(=C2c3ccccc3Sc3ccccc32)CC1	0%	?	?	27µM*	-29%	?
44	CCN(CC)CCOCCOC(=O)C1(c2ccccc2)CCCC1	?	-3	?	?	5%	?
45	CC1OC(OC2C(CO)OC(OC3C(CO)OC(O)C(O)C3O)C(O)C2O)C(O)C(O)C1N[C@@H]1C=C(CO)[C@@H](O)C(O)[C@H]1O (some centres not stated)	0%	-1	i	-21%	0%	-63%[inhibitor]

Marked active in IL-1B inflam inh, of those listed so far:
#	structure	IL-1B inflam inh	SW480 rereplic
40	O=C(CCCN1CCC(O)(c2cccc(C(F)(F)F)c2)CC1)c1ccc(F)cc1	-54*	-23%&7%

(further entries)
no.	Compound	KB-3-1 tox	IL-1B inflam inh	ATXN viability	MCF10A rerep	HepG2 viability	SW480 rereplic
46	CCCCN(CCCC)CCC(O)c1cc2c(Cl)cc(Cl)cc2c2cc(C(F)(F)F)ccc12 (configuration not stated)	0%	-1	?	?	-33%	?
47	COc1ccc2cc1Oc1ccc(cc1)CC1c3c(cc4c(c3Oc3cc5c(cc3OC)CCN(C)C5C2)OCO4)CCN1C (configuration not stated)	/	/	/	16%	/	?
48	C=CC(C)(O)CCC=C(C)C (configuration not stated)	-3%	12	i	5%	3%	-9%
49	O=C(O)[C@@H](O)c1ccccc1	0%	9	i	-11%	6%	-5%
50	COc1cc2ncnc(Nc3ccc(F)c(Cl)c3)c2cc1OCCCN1CCOCC1	/	/	?	30µM*	/	15%
51	CC[C@@H]([C@H](C)O)n1ncn(-c2ccc(N3CCN(c4ccc(OC[C@@H]5CO[C@@](Cn6cncn6)(c6ccc(F)cc6F)C5)cc4)CC3)cc2)c1=O	/	/	?	/	/	/
52	CCN(CC)C(=O)Cc1ccccc1	0%	7	i	-1%	5%	6%
53	NC12CC3CC(CC(C3)C1)C2	0%	0	i	0%	-17%	?
54	CN(C)c1ccc(O)c2c1C[C@H]1C[C@H]3[C@@H](N(C)C)C(=O)C(C(N)=O)=C(O)[C@]3(O)C(=O)C1=C2O	/	/	i	/	/	/
55	C[C@]12CC[C@@H]3c4ccc(O)cc4C[C@@H](CCCCCCCCCS(=O)CCCC(F)(F)C(F)(F)F)C3[C@@H]1CC[C@@H]2O (some centres not stated)	/	/	/	9%	/	0%
